NPR1 antag: Natriuretic polypeptide receptor (hNpr1) antagonism - Primary qHTS. AID 1347048, 2019. Atrial natriuretic peptide receptor 1 (Homo sapiens), P16066. HEK293 hNpr1 GloSensor cGMP, ANP-stimulated luminescence. hit rate 1.6% among 76,000. Potency, µM (highest dose often 46.3 µM), without a hit: top-dose activity change, negative = inhibition, hits mostly inhibitors; active = well fitted inhibition curve with a large enough effect; inconclusive = small, poorly fitted or top-dose-only effect; inactive = no such curve, though single readings can be large or run the other way;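 note: nearly all actives have a fitted effect of over 60% in size; nearly all hits also lower the signal before the agonist is added; a reference antagonist and vehicle were the controls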
Target sequence (P16066 whole entry, looked up): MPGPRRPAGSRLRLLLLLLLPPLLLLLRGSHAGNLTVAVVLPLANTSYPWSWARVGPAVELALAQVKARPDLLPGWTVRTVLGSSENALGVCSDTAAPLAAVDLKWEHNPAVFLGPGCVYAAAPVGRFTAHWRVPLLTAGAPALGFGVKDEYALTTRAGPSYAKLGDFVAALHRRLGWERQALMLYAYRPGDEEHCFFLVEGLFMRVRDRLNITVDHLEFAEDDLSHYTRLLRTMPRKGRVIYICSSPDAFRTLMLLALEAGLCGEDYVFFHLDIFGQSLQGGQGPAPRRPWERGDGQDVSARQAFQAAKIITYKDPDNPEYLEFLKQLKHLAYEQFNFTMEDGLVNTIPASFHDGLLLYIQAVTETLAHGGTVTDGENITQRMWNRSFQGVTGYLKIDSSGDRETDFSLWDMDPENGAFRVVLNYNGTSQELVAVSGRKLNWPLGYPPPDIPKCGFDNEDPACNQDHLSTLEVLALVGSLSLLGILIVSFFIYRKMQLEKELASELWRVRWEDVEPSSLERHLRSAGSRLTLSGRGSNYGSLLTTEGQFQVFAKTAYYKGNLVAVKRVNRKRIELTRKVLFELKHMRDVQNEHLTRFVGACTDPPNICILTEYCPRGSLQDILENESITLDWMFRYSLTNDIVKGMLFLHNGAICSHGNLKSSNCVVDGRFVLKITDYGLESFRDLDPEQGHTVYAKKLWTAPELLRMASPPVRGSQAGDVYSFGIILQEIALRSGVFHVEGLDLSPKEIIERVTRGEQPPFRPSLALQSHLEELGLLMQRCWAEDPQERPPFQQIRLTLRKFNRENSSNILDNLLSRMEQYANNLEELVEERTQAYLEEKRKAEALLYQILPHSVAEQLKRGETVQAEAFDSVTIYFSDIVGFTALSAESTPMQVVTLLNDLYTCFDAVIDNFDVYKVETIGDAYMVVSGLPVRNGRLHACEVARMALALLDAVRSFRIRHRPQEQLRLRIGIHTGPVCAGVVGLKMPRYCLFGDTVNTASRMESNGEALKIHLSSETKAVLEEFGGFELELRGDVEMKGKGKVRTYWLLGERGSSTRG
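Compound pre-incubated 30 min at room temperature on GloSensor-loaded HEK293 cells stably carrying hNpr1 and the pGS-40F cGMP biosensor. Stimulation uses hNppA at 0.1 nM final; luminescence is taken at baseline and 20 min post-agonist.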
* marks the source's active call; other numbers are inactive results; ? = inconclusive; [ ] = another dose, or the depositor's remark. % is set by controls: 0 for no effect and ±100 for the full control effect; potency is the fitted concentration of half-maximal effect. This is a subset, so the mix of outcomes need not match the whole.

NPR1 antag	mol
0.0%	CC(=O)Nc1ccc(CN2CCC3(C2)C(=O)N(C)c2ccccc23)cc1 (configuration not stated)
?	O=C(c1ccccc1)N1CCC2(CC1)C(=O)NCN2Cc1ccc(Cl)cc1
5.9%[70.6 µM]	COCc1cc(CC2(NCc3ccc(OC)cc3)COC2)no1
-1.2%[70.6 µM]	NC(=O)C(=O)N1CCN2C(=O)c3cc(-c4ccc(Cl)cc4)ccc3NC(=O)[C@@H]2C1
-5.3%	Cc1ccc(C(=O)N2CCC3(CC2)SCC(=O)N3c2ccc(F)cc2)cc1[N+](=O)[O-]
2.2%	COCCNC(=O)[C@@H]1C[C@H](Oc2cccnc2)CN1S(=O)(=O)c1cccnc1
0.0%	CN1[C@@H](CCC(=O)NCc2ccc(F)cc2)CNC(=O)[C@@H]2[C@H]1CCN2Cc1csnn1
-11.8%	COCCn1cc(CN2CCN(Cc3ccccc3F)CC2)ccc1=O
-3.3%[70.6 µM]	C#CCOc1ccc(C(=O)N[C@@H]2CN(Cc3ccc(C(=O)O)cc3)CCC[C@H]2O)cc1
-3.4%[70.6 µM]	COc1ccccc1C(=O)N1CCCn2nc(C)c(-c3ccccc3Oc3ccccc3)c21
-4.1%	Cc1ccc(CNC(=O)N2C[C@@H](F)C[C@H]2C(=O)N2CCc3ccccc3C2)cc1
-12.6%	COCCNC(=O)[C@H]1C[C@H](Oc2ccccc2)CN1C(=O)c1ccccc1OC
5.5%[70.6 µM]	CNc1c(-c2noc(C)c2C(=O)NCCCOC)cnn1C
-23.9%	CCN1C(=O)C2(CCN(S(=O)(=O)c3cccc(C(F)(F)F)c3)CC2)c2ccccc21
-4.0%	N#Cc1ccccc1CN1CCN(Cc2ccccc2)CC(O)C1 (configuration not stated)
0.0%	CN(C)Cc1nnc(C2CC(NC(=O)c3nc4ccccc4[nH]3)C2)n1C (configuration not stated)
-1.0%	CCc1cc(N2CCN(C)C3(CCC(=O)N(C)CC3)C2)nc(N(C)C)n1 (configuration not stated)
2.3%[70.6 µM]	COc1ccc(CC(=O)N2CC[C@H]3CC(=O)N(C4CC4)CC[C@H]3C2)cc1
?	O=C(C1CCc2ncc(-c3ccc(F)cc3)n2C1)N1CCCC1 (configuration not stated)
1.8%	Cc1ccc(Cn2cc(-c3ccncc3)cc2C(=O)NCC2CC2)cc1
-1.6%	Cc1noc(-c2cccn3c(CNC(=O)c4cccnc4)nnc23)n1
-4.3%[70.6 µM]	FC(F)(F)c1cccc(CN2CCOC[C@H](Oc3cccnc3)C2)c1
4.3%	Cc1cc(C(=O)N2CC[C@H](CO)[C@H](O)C2)cc2sc(N)nc12
4.3%	CC(C)N[C@@H]1CC[C@@H]1NC(=O)c1ccccc1OC(F)(F)C(F)F
9.4%	CCN1CCN(CCN2CC3(CCN(C(=O)c4ccsc4)CC3)OC2=O)CC1
-10.6%	COCCN(CCNC(=O)C1Cn2cccc2C(=O)N1)Cc1ccco1 (configuration not stated)
-6.4%	CN(C)C(=O)CCC1CCN(S(=O)(=O)c2cccc(F)c2)CC1
1.0%[70.6 µM]	CC(C)CN1C(=O)COC[C@@H]1[C@H](O)c1ccc(NC(=O)C2CCCCC2)cc1
3.7%	CCN1C(=O)C(CC(=O)NCc2ccccc2)Sc2ncccc21 (configuration not stated)
-0.9%	CCNc1ccnc(N2C[C@H]3CN(C(=O)N(C)C)C[C@@]3(C(=O)O)C2)n1

The final 3 compounds of the section before are carried over, then new ones follow.
NPR1 antag	mol
1.0%[70.6 µM]	CC(C)CN1C(=O)COC[C@@H]1[C@H](O)c1ccc(NC(=O)C2CCCCC2)cc1
3.7%	CCN1C(=O)C(CC(=O)NCc2ccccc2)Sc2ncccc21 (configuration not stated)
-0.9%	CCNc1ccnc(N2C[C@H]3CN(C(=O)N(C)C)C[C@@]3(C(=O)O)C2)n1
8.2%	Cn1nccc1C(=O)N1CCC2(CCCCO2)CC1
?	COc1cccc(-c2ccccc2NC(=O)C2CCN(Cc3ccccc3F)CC2)c1
-3.2%[70.6 µM]	COCCn1c(C)nnc1-c1cc(-c2cccc(OC(F)(F)F)c2)ccn1
?	COc1ccc(C(C)NC(=O)c2ccc(Cn3ccn4nc5c(c4c3=O)CCCC5)cc2)cc1OC (configuration not stated)
-17.5%	Cc1nc(C)c(C(=O)N2CCCC2c2nc(CCOCC3CCCC3)no2)s1 (configuration not stated)
-4.0%[70.6 µM]	CC(C)CCN1CCOc2cc(C(=O)Nc3cccnc3)ccc2C1
-1.5%	COC[C@H]1NC(=O)CC[C@H]1C(=O)Nc1cc(C)ccc1OC
-9.3%	CCC1(N2CCN(C(=O)c3ccc(Cl)cc3OC)CC2)CCN(C(=O)NC)C1 (configuration not stated)
6.2%	N[C@H]1CN(C(=O)c2sccc2Cl)C[C@@H]1C1CC1
0.4%	CC(C)NS(=O)(=O)c1cc(C(=O)O)cc(-c2ccc(C(=O)N(C)C)cc2)c1
2.2%[70.6 µM]	CN(c1ccccc1)c1cc(=O)c2ccnc(N3CCOCC3)c2o1
-1.8%	COCCOc1cc(=O)n2c(c1C(=O)NCc1ccc(C)cc1)CCOCC2
3.2%	CNC(=O)c1ccc(CNC(=O)Cn2nc(C)n(Cc3ccccc3)c2=O)o1
-1.6%	CCn1cc(S(=O)(=O)N2CCCN(Cc3ccncc3)C(c3ccccc3)CC(=O)NCC2)cn1 (configuration not stated)
9.9%	Cc1nc(-c2c3n(c(=O)n(CC(=O)NCc4ccccc4Cl)c2=O)CCCC3)no1
-1.4%	COc1ccc(C(=O)N[C@H]2C[C@H]3C(=O)NC[C@@H](CCC(=O)N4CCc5ccccc54)N3C2)cc1
-4.8%	Cc1ccc(-c2cc(N3CCCN(C(=O)Cc4ccsc4)CC3)n[nH]2)cc1C
0.7%[70.6 µM]	CC(C)C(=O)Nc1ccc([C@H]2OCC(=O)N(Cc3ccccc3)[C@@H]2CO)cc1
14.6%	O=C(c1cccc(OC2CN(CC3CC=CCC3)C2)c1)N1CCOCC1 (configuration not stated)
5.3%[70.6 µM]	C[C@@H](c1ccccc1)N1C(=O)[C@@H]2CN(C(=O)CC3(CC(=O)O)CCCC3)CCN2C1=O
-25.8%	COC(=O)C1=C(C)N=C2SC=C(CC(=O)N(C)Cc3ccco3)N2C1c1ccc(Cl)cc1 (configuration not stated)
-6.7%[70.6 µM]	CC(C)NC(=O)NC[C@H]1O[C@H](Cc2cc(COc3ccccc3)on2)CC[C@@H]1O
-13.5%	COc1cccc(CN2CCC3(CCC3OC)CC2)n1 (configuration not stated)
1.5%	COc1ccccc1N1CCN(CC[C@H]2CN(C(=O)NC3CCCCC3)CC[C@H]2CC(=O)O)CC1
-0.9%	O=C1CCC2(CCN(C(=O)C3CCOCC3)CC2)CN1CCc1ccncc1
-1.2%	CC(=O)Nc1ccc(C2(C(=O)NCc3cccc(Cl)c3)CCC2)cc1
6.9%	COc1ccc(C(=O)N2CCCCCNC(=O)[C@@H]3CCC[C@@H]32)cc1
0.0%	COc1ccccc1N1CCN(C(=O)Cn2ccn3nc4c(c3c2=O)CCCCC4)CC1
10.0%	Cc1cccc(NC(=O)Cn2c(=O)c(-c3noc(C)n3)c3n(c2=O)CCCCC3)c1
1.1%	COc1ccccc1N1CCN(C(=O)C(OC)c2ccccc2)CC1=O (configuration not stated)

(listing goes on)
NPR1 antag	mol
3.1%	C=CCNS(=O)(=O)c1ccc(C(=O)NC(C)c2ncnn2CCC)cc1 (configuration not stated)
?	COc1ccc(C2Cn3nnc(C(=O)N4CCN(C(=O)c5ccc(C)s5)CC4)c3CO2)cc1 (configuration not stated)
?	COc1cccc(-c2cc3c(=O)n(CCNC(=O)c4cccc5[nH]ccc45)ccn3n2)c1
-16.8%	COc1cccc(CN2CCCC(COc3ccccc3C(=O)N3CCC(C)CC3)C2)c1 (configuration not stated)
16.8%[70.6 µM]	O=C(NCCc1ccc(F)cc1)C1CN(c2ccccc2)C(=O)N1 (configuration not stated)
-3.2%	O=C(Nc1cccc(Cl)c1)c1ccc(N2CC3CC(C2)[C@H]2CCCC(=O)N2C3)nc1 (some centres not stated)
-14.4%	COCC1CN(C2CCC2)CC12CCN(C(=O)c1ccc(F)cc1)CC2 (configuration not stated)
2.1%	COc1cc(=O)n2c(c1C(=O)Nc1cccc(F)c1C)CCCC2
1.5%	Cn1c(=O)c2ccnn2c2ccc(C(=O)NCC3CCN(Cc4cccc(F)c4)CC3)cc21
2.7%	COCCOC1CN(C2CCN(Cc3ccc(C)o3)CC2)C12CCCCC2 (configuration not stated)
-1.0%	Cc1ccc(C(=O)NC(C(=O)NC2CC2)C2CCN(C(=O)c3ccccc3F)CC2)cc1 (configuration not stated)
2.2%	CC(C)c1cc(CN(C)C(=O)c2cc(COc3ccccc3)[nH]n2)on1
2.7%	O=C(C1CCCN(C2CCN(c3ncccn3)CC2)C1)N1CCOCC1 (configuration not stated)
-22.2%	COc1ccc(-c2cc3c(=O)n(CCNC(=O)c4cccc5[nH]ccc45)ccn3n2)cc1
-2.9%	COc1ccc(-c2cc3nc4c(c(=O)n3[nH]2)CN(C(=O)c2ccc3[nH]ccc3c2)CC4)cc1
-29.0%	CC(=O)Nc1ccc(C(=O)N2CCCN(c3cc(-c4ccc(Cl)cc4)[nH]n3)CC2)cc1
-13.8%	Cc1ccc(Cl)c(OCC(=O)c2ccc3c(c2)N(CCCC(=O)NC2CC2)C(=O)CO3)c1
2.3%	COc1ccc(-c2ccnc3nc(C4CCC4)nn23)cc1
4.8%	CCn1cc(S(=O)(=O)N2CCC[C@H](n3c(=O)n(CC4CC4)c4cccnc43)C2)cn1
-5.3%	COc1ccc(CCc2nc3nccc(-c4ccc5c(c4)OCCCO5)n3n2)cc1OC
3.0%	NC1CCC(n2cc(C(=O)NC3CCCN(c4ncccn4)C3)nn2)CC1 (configuration not stated)
0.2%	CCOCC(=O)N1CCC2(CC1)C(OC)CN2c1cccc(F)c1 (configuration not stated)
-3.3%	COc1ccc(OC)c(CNC(=O)[C@H]2CCC[C@H]2NC(=O)c2ccc(OC)nc2)c1
-15.3%	Cc1nc(-c2c3n(c(=O)n(CC(=O)Nc4ccc(C(C)C)cc4)c2=O)CCCCC3)no1
-14.2%	Cc1cccc(C(=O)N2CCC[C@H]2c2nc(-c3ccccc3Cl)no2)c1
-14.6%	Cc1cnc(CC2CCCN(S(=O)(=O)c3ccccc3)C2)n1CC1CC1 (configuration not stated)
8.5%	CCS(=O)(=O)Nc1ccc(C)n(CC(=O)N2CCCCCC2)c1=O
-0.1%	O=S(=O)(NC1CCc2nnc(C3CC3)n2CC1)c1cccnc1 (configuration not stated)
-1.3%	O=C(c1ccc2c(c1)OCO2)N1CCC(Cc2nc(-c3cnccn3)no2)CC1
-1.0%	CC(C)N1CCC(CCN2C(=O)[C@H]3CN(C)C[C@H]3C2=O)CC1

Further compounds:
NPR1 antag	mol
10.8%	COCCNC(=S)N[C@H]1C[C@H]2C(=O)NC[C@@H](CCC(=O)N3CCN(c4ccccc4)CC3)N2C1
0.0%[70.6 µM]	CC(C)CCN(C)C1CCc2ccccc21 (configuration not stated)
1.6%[70.6 µM]	N#Cc1cccc(-c2ccnc(N[C@H]3CO[C@H]4[C@@H]3OC[C@@H]4NC(=O)c3ccccc3)n2)c1
-2.6%	CCNC(=O)[C@@H]1C[C@H](NC(=O)c2ccc(OC)o2)CN1Cc1nc(C)no1
0.0%	NC(=O)C1(C(=O)N2CCC3(CC2)CC(=O)N(C/C=C/c2ccccc2)C3)CC1
3.2%[122 µM]	COC[C@H]1C[C@@H](NC(C)=O)[C@H](O)[C@@H]1O
-2.2%[70.6 µM]	COc1cncc(N2CC3(COCC(=O)N(Cc4cccc(OC(F)(F)F)c4)C3)C2)c1
-14.8%	N#Cc1ccccc1CN1CCCCCCNC(=O)CC1
-13.8%	CCN1c2cc(C(=O)Nc3cccc(C#N)c3)ccc2C(=O)N2CCCCCC21 (configuration not stated)
1.2%	CCOCCOC1CCN(S(=O)(=O)c2ccc(OC)cc2)CC1
2.5%	Cc1noc([C@@H]2CN(C(=O)Cc3c(F)cccc3Cl)C[C@H]2CO)n1
8.2%[70.6 µM]	CN(C)c1cc(=O)c2ccnc(Nc3ccccn3)c2o1
1.1%	N#CCn1nc2n(c1=O)CCN(S(=O)(=O)c1cccc3cccnc13)CC2
3.7%	CN(C)C[C@@H]1CN(C)C[C@H]1NC(=O)c1cnccn1
-23.7%	CCc1cc(CNC(=O)c2cc(Cn3c(C)nc4ccccc43)[nH]n2)on1
17.8µM*	Cn1cccc1C(=O)N1CCC(n2cc(-c3nc(-c4ccccc4)no3)nn2)C1 (configuration not stated)
0.3%	CC(C)(N)C(=O)N1CCCC(N2CCN(c3ccccc3)CC2)C1 (configuration not stated)
5.7%[70.6 µM]	Cc1c(-c2cn(C)c(=O)n3cc(COc4ccccc4)nc23)cnn1C
5.3%	CN1CCCCCC(O)c2cc(C(=O)NCCN3CCOCC3)ccc21 (configuration not stated)

Molecules listed so far that have a cyano group, in the order listed:
NPR1 antag	mol
-4.0%	N#Cc1ccccc1CN1CCN(Cc2ccccc2)CC(O)C1 (configuration not stated)
1.6%[70.6 µM]	N#Cc1cccc(-c2ccnc(N[C@H]3CO[C@H]4[C@@H]3OC[C@@H]4NC(=O)c3ccccc3)n2)c1
-14.8%	N#Cc1ccccc1CN1CCCCCCNC(=O)CC1
-13.8%	CCN1c2cc(C(=O)Nc3cccc(C#N)c3)ccc2C(=O)N2CCCCCC21 (configuration not stated)
1.1%	N#CCn1nc2n(c1=O)CCN(S(=O)(=O)c1cccc3cccnc13)CC2

Screens deposited in PubChem by National Center for Advancing Translational Sciences (NCATS).
